StopGo RLuc – Primary qHTS Assay for Foot and Mouth Disease Virus Antivirals against NCGC Sytravon and CBC Compound Libraries: Renilla Luciferase Signal | 120,000 compounds, 0.32% hits | AID 1745857, 2022 | Potency, µM (series often up to 57.5 µM), for the others: at the highest dose signal change, negative = less light | HEK cells with a luciferase reporter of 2A StopGo recoding; active means well fitted falling curve with a large enough effect; inconclusive means small, poorly fitted or top-dose-only effect; inactive means no such curve, though single readings can be large or run the other way; further: nearly all actives have a fitted effect of over 55% in size; overnight with compound
2A firefly – Primary qHTS Assay for Foot and Mouth Disease Virus Antivirals against NCGC Sytravon and CBC Compound Libraries: Firefly Luciferase Signal | 120,000 compounds, 0.23% hits | HEK cells with a luciferase reporter of 2A StopGo recoding | AID 1745856, 2022 | Potency, µM (doses to about 57.5 µM), inactives show at the top dose signal change, negative = less light; active = well fitted falling curve with a large enough effect; inconclusive = small, poorly fitted or top-dose-only effect; inactive = no such curve, though single readings can be large or run the other way; further: nearly all actives have a fitted effect of over 60% in size; overnight with compound
The depositor's hits bear a star; & = joins results of further samples; [ ] = another dose, or the depositor's remark. On the % scale 0 is the no-effect control and ±100 the full control effect; potency means the concentration at half of the fitted maximal effect. An excerpt; count on the stated rates, not on these rows.

`CCc1ccc(N2CCn3c2nc2c3c(=O)n(Cc3ccc(F)cc3)c(=O)n2C)cc1` gave StopGo RLuc -15% and 2A firefly -13%.
COC(=O)c1cc(NC(=O)Cn2nc(C)n3cccc3c2=O)cc(C(=O)OC)c1 was read as StopGo RLuc -17%&4% and 2A firefly -19%&-24%.
`N#Cc1c(N2CCN(CC(=O)Nc3ccccc3)CC2)nc(-c2ccco2)c2c1CCC2` gave StopGo RLuc -9% and 2A firefly -14%.
For CC(C)COc1ccc(C(=O)N2CCCCC2CCN2CCCCCC2)cc1 (centres undefined) the results were StopGo RLuc 7% and 2A firefly -11%.
`COc1ccc(-c2cnc(C)o2)cc1S(=O)(=O)Nc1ccc(F)c(F)c1` gave StopGo RLuc -62% and 2A firefly 24%.
`COc1ccc(C2C3=C(CC(C)(C)CC3=O)Nc3nc(-c4cccc(O)c4)nn32)cc1` (centres undefined) gave StopGo RLuc 43%[activator] and 2A firefly 20%.
For COc1ccc(-c2ocnc2C(=O)Nc2cc(Cl)c(OC)cc2OC)cc1 the results were StopGo RLuc -2% and 2A firefly -3%.
Screening CCOc1ccc(NC(=O)NC2CCN(c3ncccn3)CC2)cc1 returned StopGo RLuc -1% and 2A firefly 11%.
`CCc1nnc2sc(-c3ccc(CNC(=O)c4ccc(F)cc4)cc3)nn12` gave StopGo RLuc -5% and 2A firefly 3%.
Screening COCCc1nn2c(=O)cc(COC(=O)c3ccccc3C)nc2s1 returned StopGo RLuc -8% and 2A firefly 65%[activator].
CCC(Sc1nc2cc(OC)c(OC)cc2c(=O)n1CCc1ccc(Cl)cc1)C(=O)NCCOC (centres undefined) was read as StopGo RLuc -3% and 2A firefly -17%.
CCC(=O)Nc1c(-c2cc(=O)oc3c(C)cc(C)cc23)oc2ccccc12 was read as StopGo RLuc 22% and 2A firefly 6%.
Cc1ccc(-n2ccc(C=O)c2)c(C)c1 was read as StopGo RLuc -7%[1.06 µM] and 2A firefly 0%.
`Cc1ccc(NC(=O)c2nc(S(C)(=O)=O)ncc2N(Cc2ccco2)Cc2ccco2)cc1C` gave StopGo RLuc 0% and 2A firefly -9%.
Cc1cccc(C)c1NC(=O)CSc1nc(C)c(C)o1 was read as StopGo RLuc 6% and 2A firefly 16%.
`CCCc1nc(SC)ncc1C(=O)NCCc1ccc(OC)c(OC)c1` gave StopGo RLuc 2% and 2A firefly 4%.
Cc1cc(S(=O)(=O)NCCO)c(C(C)C)cc1Br was read as StopGo RLuc 294%[activator] and 2A firefly -7%.
`Cc1ccc(/C(=N\O)c2oc3ccc4c(C)cc(=O)oc4c3c2C)cc1` gave StopGo RLuc 1%[1.06 µM] and 2A firefly 0%.
`Cc1ccccc1NC(=O)C(C)Sc1ncnc2ccccc12` (centres undefined) gave StopGo RLuc -22% and 2A firefly 1%.
For Cc1ccc(-c2cc(-c3coc4ccc(Cl)cc4c3=O)c3c(n2)-c2ccccc2OC3)cc1 the results were StopGo RLuc -1% and 2A firefly -2%.
`O=C(CCC1N=C2c3ccccc3N=C(SCc3ccccc3F)N2C1=O)NCCc1ccccc1` (centres undefined) gave StopGo RLuc 9% and 2A firefly -2%.
Screening Cn1cc(-c2cc3n(n2)CCC(=O)N3CCCC(=O)Nc2ccccc2F)c2ccccc21 returned StopGo RLuc inconclusive and 2A firefly -6%.
`COc1cc(C2c3c(oc4ccccc4c3=O)C(=O)N2c2nc(C)c(C)s2)ccc1O` (centres undefined) gave StopGo RLuc 11% and 2A firefly -4%.
Cc1ccc(OCc2nc(C#N)c(NCCc3ccccc3)o2)cc1 was read as StopGo RLuc -8% and 2A firefly 27%.
For CCCCCc1c(C)nc(Nc2nc(C)c3cc(C)ccc3n2)[nH]c1=O the results were StopGo RLuc 0% and 2A firefly 7%.
Screening Cc1ccc(C(=O)NCCSc2c(C)[nH]c3ccccc23)cc1C returned StopGo RLuc -16%&5% and 2A firefly inconclusive.
`Cc1ccc(C(=O)CC(=O)c2ccc(Cl)cc2)c(O)c1` gave StopGo RLuc 45%[activator] and 2A firefly 126%[activator].
CCCN(C(=O)CCc1nc(-c2ccc(OC)cc2)no1)c1ccccc1F was read as StopGo RLuc 27% and 2A firefly 16%.
Screening Cc1[nH]c2ccccc2c1C(=O)CSc1nnc(C2CC2)o1 returned StopGo RLuc 18% and 2A firefly 57%[activator].
For CCCCc1ccc(-n2nnnc2SCC(=O)Nc2ccc3c(c2)OCO3)cc1 the results were StopGo RLuc 4% and 2A firefly 28%.
For O=C(NNC(=S)Nc1ccc(F)cc1)C(c1ccccc1)c1ccccc1 the results were StopGo RLuc 293%[activator] and 2A firefly 22%.
For CN(Cc1ccc(C(F)(F)F)cc1)C(=O)CCc1c[nH]c2ccccc12 the results were StopGo RLuc -3% and 2A firefly -8%.
COc1ccc(CCNc2ncnc3c2nnn3C)cc1OC was read as StopGo RLuc 11% and 2A firefly 15%.
COc1cc(OC)c(NC(=O)Cn2c(=O)oc3cc(S(=O)(=O)N4CCCC4)ccc32)cc1Cl was read as StopGo RLuc inconclusive and 2A firefly -13%.
Screening CCCNc1nc2ccccc2nc1C(=O)Nc1cccc(Cl)c1 returned StopGo RLuc -3% and 2A firefly 11%.
`Cc1ccc(C(=O)COC(=O)/C=C/c2ccccc2)cc1` gave StopGo RLuc 2% and 2A firefly 11%.
Screening CC(C)CNC(=O)COC(=O)c1cc(Cl)cc(Cl)c1 returned StopGo RLuc 2% and 2A firefly 9%.
For CCOC(=O)C1CCN(C(c2ccc(C)cc2)c2sc3nc(-c4ccco4)nn3c2O)CC1 (centres undefined) the results were StopGo RLuc 7% and 2A firefly -7%.
Screening Cc1ccc(Cc2sc(N)nc2C)cc1 returned StopGo RLuc 5% and 2A firefly 28%.
Screening CCCCCCCCCCCCSCCC(N)=O returned StopGo RLuc 0% and 2A firefly -3%.
For CS(=O)(=O)N1CCN(C(C(=O)O)c2c[nH]c3ccc(Cl)cc23)CC1 (centres undefined) the results were StopGo RLuc -8% and 2A firefly -5%.
Screening CCOC(=O)c1cnc2ccc(OC)cc2c1Nc1ccc(OC)cc1 returned StopGo RLuc -28% and 2A firefly -29%.
CCOCCc1nn2c(=O)cc(COC(=O)c3ccc(NC(=O)C4CCCCC4)cc3)nc2s1 was read as StopGo RLuc -21% and 2A firefly -19%.
Oc1ccc(-c2cn3ccsc3n2)cc1 was read as StopGo RLuc 19% and 2A firefly 235%[activator].
CCOCCCNCc1ccc(-c2ccc(F)cc2)o1 was read as StopGo RLuc -16% and 2A firefly -10%.
For CCCNc1c(NC(=O)c2ccc(OC(C)=O)c(OC)c2)c(=O)oc2ccccc12 the results were StopGo RLuc 5% and 2A firefly 33%[activator].
For COc1cccc(CNC(=O)c2ccc3nc(-c4ccccc4)c(-c4ccccc4)nc3c2)c1OC the results were StopGo RLuc -9% and 2A firefly -24%.
For Cc1ccc(C=Nc2ccc(C(C)C)cc2)s1 the results were StopGo RLuc 4% and 2A firefly 46%[activator].

The last two records of the part above lead into the next.
For COc1cccc(CNC(=O)c2ccc3nc(-c4ccccc4)c(-c4ccccc4)nc3c2)c1OC the results were StopGo RLuc -9% and 2A firefly -24%.
For Cc1ccc(C=Nc2ccc(C(C)C)cc2)s1 the results were StopGo RLuc 4% and 2A firefly 46%[activator].
Cn1cc(S(=O)(=O)N2CCCC(C(=O)Nc3ccn(Cc4c(F)cccc4Cl)n3)C2)cn1 (centres undefined) was read as StopGo RLuc inconclusive and 2A firefly inconclusive.
Screening Cc1ccc(NC2(c3nnnn3-c3ccccc3C)CCCCC2)c(C)c1 returned StopGo RLuc 15% and 2A firefly inconclusive.
COc1cccc(OC)c1C(=O)Nc1c(C(=O)N2CCN(Cc3ccccc3)CC2)oc2ccccc12 was read as StopGo RLuc 80%[activator] and 2A firefly 10%.
`COC(=O)c1ccc(S(=O)(=O)Nc2cccc(C(=O)OC)c2)cc1` gave StopGo RLuc 20% and 2A firefly 7%.
Screening Cc1nc(-c2ccc(S(=O)(=O)N3CCN(c4ccccc4F)CC3)cc2)co1 returned StopGo RLuc -14%&0% and 2A firefly -21%&0%.
Cc1ccc(-c2nc3sc(CCNC(=O)c4ccc(Br)o4)c(C)n3n2)cc1 was read as StopGo RLuc 4% and 2A firefly 193%[activator].
O=C(CCSCc1cccc(Cl)c1)N1CCN(c2ccc(Cl)cc2)CC1 was read as StopGo RLuc 5% and 2A firefly -7%.
For COc1ccc2c(c1)CC(C(=O)NCCc1ccc(S(N)(=O)=O)cc1)CO2 (centres undefined) the results were StopGo RLuc -7% and 2A firefly -8%.
`Cc1nn(-c2ccccc2)c(C)c1CN(C)S(=O)(=O)c1c(Cl)cccc1Cl` gave StopGo RLuc -3% and 2A firefly 11%.
O=C(O)c1cc(-c2ccccc2)n[nH]1 was read as StopGo RLuc 4% and 2A firefly 6%.
`COC(=O)[C@@H](NC(=O)Nc1ccc(OC)c(Cl)c1)C(C)C` gave StopGo RLuc -8% and 2A firefly 6%.
CN(Cc1nc2ccsc2c(=O)[nH]1)C(=O)COc1cccc(F)c1 was read as StopGo RLuc -12% and 2A firefly 3%.
Screening CCCOc1ccc(NC(=O)C(CC)Oc2ccccc2F)c2cccnc12 (centres undefined) returned StopGo RLuc 10% and 2A firefly 14%.
`COc1ccc2c(c1)cc1c(=O)n(CC(=O)NCCc3ccccc3)nc(C)n12` gave StopGo RLuc 0% and 2A firefly -4%.
`CN(C)C(=O)c1ccc(NC(=O)Cn2nc(-c3ccccc3)c3ccccc3c2=O)cc1` gave StopGo RLuc 2% and 2A firefly -1%.
`Cc1nc2c(c(C)nn2C(C)(C)C)c(C)c1CCC(=O)Nc1ccc(F)cc1` gave StopGo RLuc -5% and 2A firefly -3%.
For O=C1CN(c2nc(-c3ccccc3)nc3ccccc23)CCN1 the results were StopGo RLuc 32%[activator] and 2A firefly 100%[activator].
Screening COCCn1c(SCCOc2cccc(Br)c2)nnc1-c1ccncc1 returned StopGo RLuc 0% and 2A firefly -2%.
`Cc1cc(Nc2cccc(C(F)(F)F)c2)nc2ccc(NC(=O)Cc3ccc(Cl)cc3)cc12` gave StopGo RLuc -2% and 2A firefly inconclusive.
CCn1cc(S(=O)(=O)c2ccccc2)c(=O)c2cc(F)c(N3CCCCCC3)cc21 was read as StopGo RLuc 18% and 2A firefly 2%.
CN1CCN(c2ccc3c(c2)Oc2ccccc2CN(Cc2cn(Cc4ccc(C(F)(F)F)cc4)nn2)S3(=O)=O)CC1 was read as StopGo RLuc 112%[activator] and 2A firefly inconclusive.
CCOC(=O)c1cc(OC(=O)c2cc(Cl)ccc2OC)n(-c2ccccc2)n1 was read as StopGo RLuc 1% and 2A firefly 12%.
For CCOc1ccccc1CN1CCN(S(=O)(=O)c2ccccc2)CC1 the results were StopGo RLuc 11% and 2A firefly 2%.
Screening COCCN1C(=O)C(=O)/C(=C(/O)c2ccc(OC)c(C)c2)C1c1ccc(Cl)cc1Cl (centres undefined) returned StopGo RLuc 11% and 2A firefly 8%.
`CCOC(=O)c1ccc2ncc(C(=O)OCC)c(NCCCOC(=O)c3ccc(Cl)cc3)c2c1` gave StopGo RLuc 0% and 2A firefly 0%.
For CN1CCN(C(C(=O)O)c2cn(Cc3ccccc3)c3cc(C(=O)O)ccc23)CC1 (centres undefined) the results were StopGo RLuc -2% and 2A firefly 0%.
For Cc1ccc(/C(O)=C2\C(=O)C(=O)NC2c2ccc(F)cc2)cc1 (centres undefined) the results were StopGo RLuc 7% and 2A firefly 126%[activator].
Screening CNC(=O)c1cc(=O)n(CC(=O)Nc2ccc(C(C)=O)cc2)c2ccccc12 returned StopGo RLuc -12% and 2A firefly -2%.
O=C(CCc1ncc(-c2ccc(Cl)cc2Cl)o1)N1CCN(S(=O)(=O)c2ccccc2)CC1 was read as StopGo RLuc -21% and 2A firefly -14%.
Screening COc1cc(C(=O)Nc2ccccc2-c2nc(-c3ccccc3)no2)cc(OC)c1OC returned StopGo RLuc -3% and 2A firefly 3%.
Screening COc1ccc(CCNC(=O)C2COc3ccccc3C2)cc1OC (centres undefined) returned StopGo RLuc 5% and 2A firefly -14%.

Structures from the list above that contain an aryl thioether with sulfur outside any ring, in the order listed:
CCC(Sc1nc2cc(OC)c(OC)cc2c(=O)n1CCc1ccc(Cl)cc1)C(=O)NCCOC (centres undefined) was read as StopGo RLuc -3% and 2A firefly -17%.
Cc1cccc(C)c1NC(=O)CSc1nc(C)c(C)o1 was read as StopGo RLuc 6% and 2A firefly 16%.
`CCCc1nc(SC)ncc1C(=O)NCCc1ccc(OC)c(OC)c1` gave StopGo RLuc 2% and 2A firefly 4%.
`Cc1ccccc1NC(=O)C(C)Sc1ncnc2ccccc12` (centres undefined) gave StopGo RLuc -22% and 2A firefly 1%.
Screening Cc1ccc(C(=O)NCCSc2c(C)[nH]c3ccccc23)cc1C returned StopGo RLuc -16%&5% and 2A firefly inconclusive.
Screening Cc1[nH]c2ccccc2c1C(=O)CSc1nnc(C2CC2)o1 returned StopGo RLuc 18% and 2A firefly 57%[activator].
For CCCCc1ccc(-n2nnnc2SCC(=O)Nc2ccc3c(c2)OCO3)cc1 the results were StopGo RLuc 4% and 2A firefly 28%.
Screening COCCn1c(SCCOc2cccc(Br)c2)nnc1-c1ccncc1 returned StopGo RLuc 0% and 2A firefly -2%.

Screening data: PubChem, National Center for Advancing Translational Sciences (NCATS)
